# Source: PubChem BioAssay
# TRPML1 ag = agonists of human TRPML1 channel. Q9GZU1. TRPML1-expressing cells, Ca2+ dye fluorescence, FDSS; host cell line not named in the record; reference of the full effect not given here. activation, % (test concentration not listed). 410,000 tested, 0.12% active. AID 624414; in the data active = activation above about 50%; inconclusive = about 30% to 50%; inactive = below about 30%; also: 0% is about no effect; the text of the record puts the active cut at 80%
# Target sequence (Q9GZU1 whole entry, looked up): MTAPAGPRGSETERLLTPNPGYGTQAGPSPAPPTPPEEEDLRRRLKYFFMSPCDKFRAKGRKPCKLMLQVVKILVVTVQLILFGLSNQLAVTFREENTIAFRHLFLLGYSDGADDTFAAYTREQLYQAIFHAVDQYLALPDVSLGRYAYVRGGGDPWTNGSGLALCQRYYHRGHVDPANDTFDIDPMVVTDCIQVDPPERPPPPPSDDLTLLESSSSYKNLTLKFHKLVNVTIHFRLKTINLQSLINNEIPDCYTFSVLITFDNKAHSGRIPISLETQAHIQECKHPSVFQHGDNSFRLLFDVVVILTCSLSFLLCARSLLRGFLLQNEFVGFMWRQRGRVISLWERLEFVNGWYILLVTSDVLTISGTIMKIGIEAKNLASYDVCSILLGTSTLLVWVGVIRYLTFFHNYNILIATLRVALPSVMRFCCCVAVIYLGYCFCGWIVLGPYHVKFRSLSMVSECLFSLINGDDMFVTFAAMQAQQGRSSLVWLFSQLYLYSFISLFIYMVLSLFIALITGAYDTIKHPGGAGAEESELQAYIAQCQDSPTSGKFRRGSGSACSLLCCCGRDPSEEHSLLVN
#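 Kinetic FDSS Ca2+ read in Tet-induced TRPML1-DL cells (ABD Ca8 dye plus quencher, 45-90 min RT loading): baseline, then compound, then 110 s agonist window; EC80 agonist 54-4 at 4uM final added afterwards for a 110 s antagonist window.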
# gsp antag = antagonizes gsp, the McCune-Albright syndrome mutation; gsp-mutant cells, cAMP HTRF, 30 min; control for the full effect not named in the record; Potency, µM (doses to about 76.9 µM), for the others: at the top dose activity change, negative = inhibition, actives largely listed as inhibitors; 340,000 tested, 0.4% active; active = falling curve of any shape with a large fitted effect; inconclusive = falling curve, mostly with a smaller effect; inactive = flat or rising curve; cell line not stated here;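 also: intracellular cAMP measured with PDE inhibitor Ro 20-1724 present during compound exposure; potency is read from the fitted curve at half-maximal effect; % is scaled to controls: 0 for no effect and ±100 for the full control effect; nearly all actives have a fitted effect of over 65% in size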
#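 HTRF cAMP measurement after 30 min RT detection following 30 min, 37C compound treatment alongside […] (added as 300 uM solution) in G418-selected cells seeded at 2000/well and grown 16–24 h.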
# Menin-MLL FL inh = displaces fluorescein MLL peptide from human menin | Fluorescence polarization, fluorescein-MLL peptide displacement from menin | FP activity change, % at 61.4 µM | 290,000 tested, under 10 active | AID 1766; inconclusive = falling polarisation curve, or a change in total fluorescence; inactive = total fluorescence flat and polarisation flat or rising; no compound was filed as active; the % refers to the polarisation; negative = inhibition;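 also: % of control where 0% means no effect; inhibitors lower the polarisation; unlabelled MLL peptide was the positive control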
# ClpP mod = qHTS Assay for Activators of ClpP; ATP-dependent Clp protease proteolytic subunit (Bacillus subtilis (strain 168)), P80244; 340,000 tested, 1.9% active; Potency, µM (top dose mostly 57.5 µM), without a hit: at the highest dose activity change, negative = active; purified B. subtilis ClpP, FRET peptide cleavage, 20 min; active = well fitted falling curve with a large enough effect; inconclusive = small, poorly fitted or top-dose-only effect; inactive = no such curve, though single readings can be large or run the other way; also: potency is read from the fitted curve at half-maximal effect; the source files actives as falling curves though it sought activators and does not explain the sign; nearly all actives have a fitted effect of over 65% in size; many hits overshoot -100%
# Target sequence (P80244 whole entry, looked up): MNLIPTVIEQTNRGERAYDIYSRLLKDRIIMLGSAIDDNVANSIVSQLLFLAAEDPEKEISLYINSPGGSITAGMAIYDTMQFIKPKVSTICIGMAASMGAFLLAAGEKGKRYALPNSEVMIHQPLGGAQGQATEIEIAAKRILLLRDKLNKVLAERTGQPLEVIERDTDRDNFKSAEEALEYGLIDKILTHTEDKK
#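 FRET quenching reversal measured ClpP activation: 10 microg/mL B. subtilis ClpP at pH 8 with the FRET-FV decapeptide, read at 430 nm after 320 nm excitation. The 20-min minus 0-min signal was scaled between DMSO/no-enzyme wells and ADEP (5.8 microM final).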
# gsp ag = agonists of gsp mutant (McCune-Albright syndrome) | gsp mutant cells, cAMP HTRF, 30 min; control for the full effect not named in the record | Potency, µM (doses to about 76.9 µM), for the others: at the top dose activation (cAMP increase), usual class: activators | 340,000 tested, 0.13% active | AID 624287; active = well fitted activation curve with a large enough effect; inconclusive = small, poorly fitted or top-dose-only effect, or another doubt; inactive = no such curve, though single readings can be large or run the other way; cell line not stated here;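 also: phosphodiesterase inhibitor Ro 20-1724 added with compounds to block cAMP breakdown; potency is read from the fitted curve at half-maximal effect; nearly all actives have a fitted effect of over 60% in size; about a fifth of the inactives were tested at one dose only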
#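 Cells in DMEM/10% FBS with G418 were pretreated with compounds in DMSO plus […] (300 uM stock) for 30 min at 37C. cAMP was measured by HTRF (cAMP-d2 plus anti-cAMP antibody-K) after 30 min at room temperature.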
# TRPML1 inh = inhibitors of human TRPML1 channel; Q9GZU1; 390,000 tested, 0.02% active; activity change, negative = inhibition, % (test concentration not listed); AID 624415; TRPML1-inducible cells, Ca2+ dye fluorescence, FDSS; hits give low values; inhibition of EC80 agonist-evoked calcium signal; in the data active means activity change below about -50%; inconclusive means about -30% to -50%; inactive means above about -30%;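 also: stimulus is agonist 54-4 at its EC80 concentration; % is scaled to controls: 0 for no effect and ±100 for the full control effect; compound concentration not given in the record; the text of the record puts the active cut at -80%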
#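 Tet-induced TRPML1-DL cells loaded with Ca8 no-wash calcium dye were read kinetically on FDSS. Compound addition was followed by EC80 agonist 54-4 (4 uM final); inhibition was read over 110 s.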
# Starred values were filed as active, the others as inactive; u = inconclusive; x = no result given; & = joins results of further samples; [ ] = remark or other dose.
structure	TRPML1 ag	gsp antag	Menin-MLL FL inh	ClpP mod	gsp ag	TRPML1 inh
COc1ccc(CC(O)COS(N)(=O)=O)cc1 (configuration not stated)	-1.1	10.3%	3.8	-4.7%	x	-18.4
CC(C)(C)c1nnc(NC(=O)CN2C(=O)C3C4C=CC(C4)C3C2=O)s1 (configuration not stated)	0.1	-1.0%	-2.4	-0.8%	0.7%	1.6
CCCN(C(=O)Nc1cn(CC(C)C)c(=O)c2ccccc12)c1ccc(F)cc1	3.5	x	x	4.2%	x	43.3
CCCC(=O)N1CCc2cc(-c3nc(N)sc3C)ccc21	-1.4	-22.3%	2.9	-0.8%	1.4%	16.1
COc1ccc(Br)cc1CNC(=O)c1cnc2sc(N3CCCCCC3)nn2c1=O	-0.4	x	x	8.91µM*	x	10.0
O=C(Nc1cccc(Cl)c1)N1CCN(C/C=C/c2ccccc2)CC1	-0.5	-13.9%	-6.1	-0.1%	0.0%	5.4
O=C(O)c1c[nH]c2ccc(F)cc2c1=O	1.6	8.5%	-2.8	x	17.0%	18.9
Cn1c(SCC(=O)Nc2ccccc2)nnc1-c1ccc(NC(=O)CCc2ccccc2)cc1	0.0&-0.4	9.6%	-3.3	0.4%&1.0%	-5.1%	25.9
CCOC(=O)c1sc2nc(NC(=O)C3CC3)sc2c1C	-0.4	5.2%	-2.1	4.1%	15.9%	-10.7
FC(F)(F)C1CCCN(c2nsc3ccccc23)C1 (configuration not stated)	1.0	-4.6%	-1.7	x	-6.2%[15.4 µM]	10.0
COc1ccc(CNS(=O)(=O)c2cc3c(cc2C)n(C)c(=O)c(=O)n3C)cc1	4.2	x	x	-11.6%	x	12.2
Cc1ccc(-c2ccc(/C=C(\C#N)C(N)=S)o2)c([N+](=O)[O-])c1	0.2	x	-0.2	x	0.7%[15.4 µM]	-0.1
Cc1cc(C)c2c(n1)sc1c(=O)[nH]c(SCc3ccccc3)nc12	-1.0	12.4%	1.4	-12.1%	-3.3%	2.8
C[C@H](CO)N1C[C@H](C)[C@@H](CN(C)Cc2cccc3c2OCCCO3)OCc2cnnn2CCCC1=O	0.2	x	x	-3.7%	u	-4.4
CN1C(=O)N(C)C2(c3ccccc3)NNC(N)=NC12c1ccccc1 (configuration not stated)	-1.3	3.7%	8.9	x	-20.2%[15.4 µM]	0.0
CC(C)OCCCn1c(NN)nc2ccccc2c1=O	-0.1	x	-7.5	x	-12.2%[15.4 µM]	4.2
Cc1nc2ccccn2c1C(=O)NNS(=O)(=O)c1ccc(Cl)cc1	-1.2	-5.2%	0.0	x	-5.0%[15.4 µM]	-3.1
COc1ccccc1C1N(c2ccc(F)cc2)C(=O)C2CCCN21 (configuration not stated)	-0.4	-1.5%	0.9	-4.4%	-17.0%	-8.6
Cc1ccc(C(=O)Cn2nnc(-c3cccs3)n2)cc1	1.7	50.1µM*	-1.6	-1.0%	u	-9.5
COc1ccccc1N1CCN(Cc2cc(=O)oc3cc(C)ccc23)CC1	-0.5	x	x	-4.2%	x	8.5
CCOC(=O)C1C(=O)NC(SCC(=O)OC)=C(C#N)C1c1ccccc1OCC (configuration not stated)	1.8	-28.9%	-1.1	1.8%	3.7%	29.7
CCOc1ccc(-n2c(N)c(-c3nc4ccccc4[nH]3)sc2=S)cc1	-0.9	7.7%	5.9	-0.7%	0.0%	-0.3
CCCc1cc(=O)[nH]c(SCC(=O)Nc2sc3c(c2C#N)CCC(C)C3)n1 (configuration not stated)	0.7	-21.2%	7.5	-3.2%	34.4%	-13.1
COc1ccc(C2(CNC(C)=O)CCCC2)cc1OC	-0.7	2.9%	5.9	1.1%	4.7%	-1.7
CC(=O)Nc1cccc(NC(=O)CSc2cn(CC(=O)N(C(C)C)C(C)C)c3ccccc23)c1	1.9	x	x	-0.3%	x	18.9
Cc1ccc(N(CC(=O)N2CCN(c3ccc(Cl)cc3)CC2)S(=O)(=O)c2c(C)nn(C)c2C)cc1	-0.3	x	x	-3.6%	x	3.4
O=C(COC(=O)/C=C/c1ccccc1[N+](=O)[O-])Nc1ccc(OCc2ccccc2)cc1	1.4	-7.1%	5.3	-3.2%	-131.0%[inhibitor]	1.0
CCS(=O)(=O)Nc1ccc(-c2cn3ccsc3n2)cc1	-0.1	x	x	-0.7%	x	-15.8
Cc1ccc(N2C(S)=C(C#N)C(=O)NC23CCCCC3)cc1	0.5	-21.2%	5.8	0.4%	-15.3%	-4.0
O=C1/C(=C/c2cccnc2)SC(=S)N1NS(=O)(=O)c1ccccc1	-0.4	-20.1%	-2.5	-0.3%	-6.6%[15.4 µM]	14.2
Cc1ccc(-c2cc(NC(=O)C(C)Oc3ccc(C)c(C)c3)on2)cc1 (configuration not stated)	0.5	x	x	-7.4%	x	-6.0
CC1C(=O)N(Cc2cn(CCC3OCCO3)nn2)CCS(=O)(=O)N1Cc1ccc(-c2ccccc2)cc1 (configuration not stated)	-0.2	x	x	1.7%	-80.2%[inhibitor]	-4.6
COc1cccc(CSC(C(=O)O)c2ccccc2)c1 (configuration not stated)	-0.4	x	x	-0.7%	-1.6%	-2.0
CCOc1ccccc1N1CCN(C(=S)NCc2ccc(Cl)cc2)CC1	0.6	-5.1%	1.6	-0.9%	u	-9.2
COc1ccc(CCNC(=O)c2c(O)nc3c(C)cccn3c2=O)cc1OC	-1.3	x	x	-9.6%	x	6.6
CCOc1ccc(-c2cccc(NS(=O)(=O)c3cc([N+](=O)[O-])ccc3Cl)c2)nn1	1.4	-27.1%	x	-2.2%	-15.7%	-16.8
O=C(CSc1ncnc2ccccc12)c1ccc2c(c1)OCCO2	-0.2	u	3.1	1.7%	15.9%[15.4 µM]	2.4
CCc1ccc2oc(-c3cc(N)cc(C)c3O)nc2c1	-0.4	-5.2%	0.8	1.6%	24.7%	26.3
COc1ccc2[nH]c3c(c2c1)CCN1C(=O)N([C@@H](C)C(=O)NCc2ccc(F)cc2)C(=O)[C@]31C	x	-11.7%	-1.9	1.9%	x	x
C[C@H](NC(=O)c1nc[nH]c1C(=O)NCc1ccc(CNC(=O)OC(C)(C)C)cc1)C(=O)OCc1ccccc1	0.9	u	x	3.4%	x	-0.4
N#Cc1ccccc1CN1C(=O)S/C(=C/c2cccn2-c2ccc(C(=O)O)cc2)C1=O	1.2	-8.1%	13.8	1.2%	1.3%	42.6
Nc1ccc2nc(N3CCOCC3)sc2c1	3.2	-21.1%	5.4	-0.7%	-28.2%	-2.8
O=C(c1ccc(F)cc1)N1CCN(Cc2ccccc2Br)CC1	2.5	1.0%	3.5	-2.7%	-47.0%	14.0
CC(NC(=S)NC1CCCCC1)c1ccc(C(C)(C)C)cc1 (configuration not stated)	-0.5	-17.7%	2.1	7.4%	-46.9%[15.4 µM]	-4.2
COC(=O)CSc1ccc(-c2nc3ccc(C)cc3[nH]2)cn1	-0.1	-13.5%	0.1	-18.2%	u	-1.7
CCCCn1c(N)c(N(CC)C(=O)c2ccc(N(C)S(=O)(=O)c3ccc(C)cc3)cc2)c(=O)[nH]c1=O	0.5	-0.3%	x	x	-2.7%[15.4 µM]	8.1
O=C(CN(c1ccccn1)S(=O)(=O)c1ccccc1)Nc1ccccc1	0.0	5.9%	-2.8	4.5%	-126.5%[inhibitor]	-0.4
O=C(CCC(=O)N1CCN(S(=O)(=O)c2ccccc2)CC1)c1ccc(Br)cc1	1.4	-1.2%	x	-1.0%	2.7%	7.3
O=C(O)C1C2C=CC(C2)C1C(=O)NCCCn1ccnc1 (configuration not stated)	0.0	-1.7%	-2.3	-0.6%	21.5%	18.0
CCc1ccccc1N(C1=NCCCS1)S(=O)(=O)c1ccc(C(C)(C)C)cc1	21.6	-1.2%	7.0	-3.6%	-3.6%	2.2

# More records follow.
structure	TRPML1 ag	gsp antag	Menin-MLL FL inh	ClpP mod	gsp ag	TRPML1 inh
CC(=O)Nc1ccc(NC(=S)NC(=O)/C=C/c2ccccc2)cc1	-1.2	-6.1%	-1.9	x	u	12.7
Cc1ccc(S(=O)(=O)NCc2csc(C)n2)c(C)c1	1.3	0.0%	2.3	1.0%	-21.2%	12.0
CN(C)CCCN(C(=O)CCSc1ccccc1)c1nc2cc3c(cc2s1)OCO3	0.8	4.2%	-9.6	x	-9.1%[15.4 µM]	-16.8
Cc1ccc(NC(=O)N2CCc3cc(S(=O)(=O)N4CCC(C)CC4)ccc32)cc1	1.6	x	x	-0.6%	x	-15.2
Cc1ccc(C)c(NC(=O)Cn2nnc(C(=O)NCc3cccs3)c2N)c1	-0.3	-0.5%	8.0	-1.5%	-16.4%	-8.0
O=C(CN1CCN(Cc2ccccc2Cl)C1=O)NCc1cccnc1	-0.2	-3.8%	6.1	-2.7%	-37.2%[inhibitor]	-9.1
O=c1oc2ccccc2c(O)c1/C=N/c1ccccn1	-1.1	4.8%	-1.0	-1.1%	-38.1%[inhibitor]	38.7
COc1ccc(OC)c(NC(=O)CCCOc2cc(=O)n(C)c3ccccc23)c1	2.2	x	x	-1.5%	x	-5.1
Cc1cccc(Cl)c1OCCCCn1ccnc1	0.9	-9.1%	0.6	-3.3%	19.9%	-11.4
O=C(O)Cc1ccc(C(=O)c2ccccc2)s1	0.4	-5.2%	-0.3	0.1%	-1.7%	-20.4
Cc1cc(NC(=O)CCC(=O)N(Cc2ccco2)C(C(=O)NC2CCCCC2)c2cccs2)no1 (configuration not stated)	2.6	-3.2%	-0.2	x	-0.9%[15.4 µM]	0.6
Cc1ccc([N+](=O)[O-])cc1NC(=O)CSc1nncn1-c1ccccn1	0.5	3.7%	1.0	x	45.0%	-3.8
O=C(NCc1cc(C(F)(F)F)ccc1Cl)c1cccc2c1C(=O)c1ccc(N3CCC(Cc4ccccc4)CC3)cc1S2(=O)=O	0.8	0.7%	x	1.4%	x	-1.9
Cc1ccc(-c2nnc(Nc3ccc(Cl)c(Cl)c3)c3ccccc23)cc1S(=O)(=O)N(C)C	-0.2	x	x	-27.4%	x	-9.1
OCCC1CN(Cc2cccn2-c2nccs2)CCN1Cc1ccc(F)c(F)c1 (configuration not stated)	1.5	-1.1%	-1.1	x	-9.1%[15.4 µM]	1.2
COc1ccc(CCC(=O)Nc2ccc(OC)c(S(=O)(=O)N3CCCCC3)c2)cc1OC	0.3	-8.2%	x	-0.6%	3.6%	13.2
COC(=O)c1oc2ccc(Br)cc2c1-n1cccc1	1.5	-11.6%	-2.2	-3.6%	3.0%	-5.9
Cc1ccc(Cl)cc1NC(=O)C(NS(=O)(=O)c1ccc2c(c1)CCC(=O)N2)c1ccccc1 (configuration not stated)	-0.2	x	x	-0.3%	x	0.3
O=C(NC1CCCCC1)Nn1c(-c2ccccc2)nc2ccccc2c1=O	2.6	-6.2%	5.6	-3.1%	-3.5%	7.2
N#CCSc1nnc(COc2cccc3ccccc23)n1-c1ccccc1	1.1	u	3.0	-0.1%	-7.2%	47.6
Cc1c(NC(=O)c2c(F)cccc2F)c(=O)n(-c2ccccc2)n1C	-0.6	8.0%	1.9	1.3%	12.0%	-3.5

# Rows were taken by chance; any-hit rate near 2.1%.
